Assay outcomes as filed in PubChem BioAssay.
Mtb H37Rv: Mycobacterium tuberculosis H37Rv growth inhibition, cell based, confirmatory dose response (AID 1949); most inactive calls were filed without a number and no value below 0 was filed; M. tuberculosis H37Rv growth inhibition; actives 1.6% (n = 100,000); one-dose inhibition, % at 10 µg/mL; IC50 in µg/mL for titrated hits;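 active means confirmed in a dose series; inconclusive means about 50% or more but not retested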;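 further: bacteria grown 7 days with compound before Alamar blue readout; 0% = untreated bacteria and 100% = reference antibiotic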
Starred values were filed as active, the others as inactive; i = inactive; ? = inconclusive. These rows are one share of the data; rates above refer to the full screens.

compound | Mtb H37Rv
Cc1ccc(OCc2nc(C#N)c(N(C)C)o2)cc1 | i
COc1ccc(-c2nc3cc(NC(=O)Cc4ccccc4)ccc3o2)cc1 | i
COc1ccc(N(C(C)=O)c2nc(C)cc(C)c2C#N)c(OC)c1 | i
Cc1nc(Nc2nc3ccccc3s2)nc(-c2ccccc2)c1C#N | i
Cc1ccc(-c2csc(NC(=O)c3ccc(Cl)cc3Cl)n2)c(C)c1 | i
COc1ccc(Nc2nc(-c3ccccn3)cs2)c(OC)c1 | <0.1µg/mL*
Cc1ccc(N(CC(=O)Nc2ccccc2C(=O)NC(C)C)S(=O)(=O)c2ccccc2)c(C)c1 | i
Cn1nc(C(=O)Nc2cccnc2)c2ccccc2c1=O | i
O=C(NNC(=O)C1CCN(Cc2ccc(F)cc2Cl)CC1)Nc1ccc2c(c1)OCO2 | i
CNCCOc1ccc(C)cc1I | i
CC(C)(C)c1cc(NC(=O)Nc2ccccc2C(F)(F)F)no1 | 5%
O=C(COc1ccc(Cl)cc1)Oc1ccc(Br)c2ccccc12 | i
Cc1cc(Cl)ccc1NC(=S)NCc1ccc(Cl)cc1 | i
O=C(CC(c1ccccc1)c1ccccc1)Nc1ccc(C(=O)O)cc1 | i
O=C(O)CC(NCc1ccccc1)C(=O)Nc1ccc(Cl)cc1 (stereo not drawn) | i
Cc1ccc(S(=O)(=O)N(C)c2ccc(C(=O)Nc3ccccc3C(F)(F)F)cc2)cc1 | i
CCc1ccc(CN2CCC(N3CCN(CC)CC3)CC2)cc1 | i
O=C(NCCc1ccccc1)C(=O)c1c[nH]c2ccccc12 | i
O=C(Nc1c(C(=O)N2CCCCC2)cnn1-c1ccccc1)c1ccco1 | i
CCCCOc1ccc(C(=O)Nc2ccc(N3CCN(C(=O)c4ccc(C)cc4)CC3)cc2)cc1 | i
CCOC(=O)c1c(NC(=O)CN2CCN(CCO)CC2)sc2c1CCC(C)C2 (stereo not drawn) | 7.2µg/mL*
COc1cccc(-n2c(/C=C/c3ccc(F)cc3)nc3ccc(I)cc3c2=O)c1 | 1%
Cc1ccc(C)c(-c2cc(C(=O)NNC(=S)NCC(C)C)c3ccccc3n2)c1 | i
COc1cccc(N(CC(=O)Nc2ccccc2C(=O)N2CCOCC2)S(C)(=O)=O)c1 | i
COc1cc(OC)c(-n2c(C)cc(C=O)c2C)cc1Cl | i
Cc1cc(C)nc(-n2ncc(C(=S)Nc3ccccc3)c2C)n1 | 0%
c1ccc(OCc2nc(-c3cccs3)no2)cc1 | 15%
COc1ccc(OC)c(S(=O)(=O)NC2CCN(Cc3ccccc3)CC2)c1 | i
COCc1cc(C)nc2sc(C(=O)Nc3cccc(C(F)(F)F)c3)c(N)c12 | i
Cc1ccc(OCCN2CCNCC2)c(Br)c1 | i
COC(=O)c1c(C(=O)OC)c2n(c1C)Cc1ccccc1C2 | i
Cc1ccc(N(CC(=O)Nc2ccccc2F)S(C)(=O)=O)cc1Cl | i
CCN1CCN(C(=S)Nc2ccc(Cl)cc2Cl)CC1 | i
Cn1c(=O)c2c(nc(Oc3ccccc3)n2Cc2ccc(Cl)cc2Cl)n(C)c1=O | i
O=C(COc1ccc(Br)cc1)N1CCC(c2ccccc2)C1 (stereo not drawn) | 8%
Cn1c(SCC(=O)NC2CCCC2)nnc1-c1ccc(Br)cc1 | i
Cc1ccc(C(=O)Nc2ncc(Cc3ccccc3)s2)cc1 | i
O=C(CNC(=O)c1cccs1)OCc1ccc(Cl)cc1 | i
Cc1ccccc1NC(=O)CC1c2ccccc2CC(C)(C)N1C (stereo not drawn) | i
CCOc1ccccc1NC(=O)c1c(N)sc2c1CCC(C(C)(C)C)C2 (stereo not drawn) | 3%

3 structures already listed, sorted by SMILES length, rising:
compound | Mtb H37Rv
Cn1c(SCC(=O)NC2CCCC2)nnc1-c1ccc(Br)cc1 | i
Cc1cc(C)nc(-n2ncc(C(=S)Nc3ccccc3)c2C)n1 | 0%
COc1ccc(OC)c(S(=O)(=O)NC2CCN(Cc3ccccc3)CC2)c1 | i

(list continues)
compound | Mtb H37Rv
COc1cccc2cc(C(=O)N3CCN(C(=O)c4ccco4)CC3)c(=O)oc12 | i
CC(C)N(C(=O)Cn1c(=O)oc2ccccc21)c1ccccc1 | i
Cn1c(SCC(=O)Nc2ccc([N+](=O)[O-])cc2)nc2ccccc21 | i
COc1ccc(C(=O)Nc2ccc(Cc3ccncc3)cc2)c(OC)c1OC | i
O=C(Cc1ccccc1)Nc1ccc(NC(=O)Cc2ccccc2)c(Cl)c1 | i
CCOC(=O)c1ccc(NC(=O)C2CC(=O)NC(=NC)S2)cc1 (stereo not drawn) | i
O=C(Oc1ccccc1)N1CCCCC1 | i
CSc1ccccc1C(=O)N1CCc2ccccc2C1 | 12%
COc1ccc(OC)c(N(CC(=O)Nc2cccc(N(C)S(C)(=O)=O)c2)S(=O)(=O)c2ccccc2)c1 | i
CCn1c(Cc2ccc(OC)cc2)nnc1SCC(=O)Nc1cccc(OC)c1 | i
CCCN(CCC)c1ncnc2c1cnn2-c1ccc(C)cc1C | 35%
COc1ccc(OC)c(NC(=S)NCC2CCCO2)c1 (stereo not drawn) | i
CCOc1cc(-c2noc(CCC(=O)NCc3ccco3)n2)cc(Br)c1OC | i
COc1cccc(NC(=O)C(=O)NCc2cccc(C)c2)c1 | i
Cc1ccc(-c2c(C)sc3ncn(CC(=O)N4CCOCC4)c(=O)c23)cc1C | i
COc1cc2c(cc1OC)CN(C(=O)CSc1nc3c(cc1C#N)CCC3)CC2 | 1%
Cc1ccc(S(=O)(=O)NNC(=S)NCCCN2CCOCC2)cc1 | 5%
c1ccc(N2CCN(c3ncnc4scc(-c5cccs5)c34)CC2)cc1 | 20%
CC(=O)Nc1ccc(S(=O)(=O)N2CCN(C(=O)N3CCCCC3)CC2)cc1 | i
O=C(Nc1ccccc1Cl)c1cn(-c2ccccc2)nc1-c1cccs1 | 7%
CNCCOc1c(C)cc(C)cc1Br | i
COc1ccc(CCNC(=S)NNC(=O)C(C)Sc2nc3ccccc3s2)cc1OC (stereo not drawn) | 8%
CCCC(C)c1nnc(NC(=O)c2ccc(OC(C)=O)cc2)s1 (stereo not drawn) | i
O=C(CSc1ccccc1)Nc1c[nH]c(=O)[nH]c1=O | 2%
O=C(Nc1ccc(-c2noc(-c3ccccc3F)n2)cc1)c1cccs1 | 1%
CCOC(=O)C1=C(C)NC2=C(C(=O)c3ccccc32)C1c1ccccc1Br (stereo not drawn) | i
CCCN1CCC(NC(=S)NC2CCCCC2)CC1 | 3%
COc1ccc(OCCCN2CCC(Cc3ccccc3)CC2)cc1 | i
COC(=O)c1ccc(NC(=S)N2CCN(c3cc(Cl)ccc3C)CC2)cc1 | i
C(=C\c1ccc2c(c1)OCCO2)/c1ccc2c(c1)OCCO2 | 7%
Cc1cc(Br)ccc1OCC(=O)Nc1ccc(C(C)C)cc1 | i
CCc1cccc(CC)c1NC(=O)COc1ccc(S(=O)(=O)NC(C)(C)C)cc1 | 0%
C=CCOc1ccccc1CNc1ncn[nH]1 | i
CCCCN(CCCC)C(=O)CSc1nnc(-c2ccc(N(C)C)cc2)o1 | i
COCCNCCCOc1ccc(Br)cc1C | i
CCOC(=O)c1c(NC(=O)c2ccc(OC)cc2)sc2c1CCCCC2 | i
Cc1ccc(N(C(C)C(=O)N2CCN(Cc3ccccc3)CC2)S(C)(=O)=O)cc1 (stereo not drawn) | i
CCOC(=O)c1c(-c2ccc(OC)cc2)csc1NC(=O)COc1ccccc1 | 12%
O=C(CN(c1ccc2c(c1)OCCO2)S(=O)(=O)c1ccccc1)Nc1ccc(S(=O)(=O)N2CCOCC2)cc1 | i
COc1ccc(CCNC(=O)c2ccc(N(C)S(=O)(=O)c3ccc(C)cc3)cc2)cc1OC | i
COc1ccccc1OS(=O)(=O)c1ccc(Br)cc1 | i
CC(NC(=O)c1cccc(Br)c1)C1CCCO1 (stereo not drawn) | i
COc1ccc(NC(=S)Nc2ccc(C)cc2[N+](=O)[O-])cc1OC | i
CCOCCc1nnc(NC(=O)c2cccs2)s1 | 0%
Cn1c(SCCC#N)nnc1-c1cccc(Cl)c1 | i
CCCCOc1ccc(NC(=O)CSc2nnc(C(O)c3ccccc3)n2-c2ccccc2)cc1 (stereo not drawn) | i
COc1cc(C(=O)NC(C)(C)Cc2ccc(Cl)cc2)cc(OC)c1OC | i
Cc1cc(OCCCn2ccnc2)cc(C(C)C)c1 | 6.2µg/mL*
COc1ccc(S(=O)(=O)N(Cc2ccccc2)Cc2ccccc2)cc1Cl | i
CCCCc1cc(=O)oc2c(C)c(OC(C)C)ccc12 | 12%
CCn1c(CNC(=O)Cc2ccc(OC)cc2)nnc1SCC(=O)N(C1CCCCC1)C1CCCCC1 | i
COc1ccc(C(=S)N2CCN(c3cccc(Cl)c3)CC2)cc1OC | i
O=C(Nc1ccc2ccccc2c1)c1cccc(NC(=O)C(F)(F)F)c1 | i
CC1(C)CC(=O)C2=C(C1)Nc1ncnn1C2c1ccccc1F (stereo not drawn) | i
O=C(COc1ccc(S(=O)(=O)NCc2ccccc2)cc1Cl)NCc1ccco1 | 12%
CC1CN(C(=S)NCCc2ccccc2)CC(C)O1 (stereo not drawn) | i
Cc1ccc(NC(=O)c2ccccc2NC(=O)COc2ccccc2Cl)cc1C | 6%
Cc1c(Cl)cccc1NC(=O)NC1CCCCC1 | i
Cc1cc2c(cc1C)NC(c1cc(Br)ccc1O)C1=C(CC(C)(C)CC1=O)N2 (stereo not drawn) | 0%
Cc1ccn2c(-c3csc(Nc4ccccn4)n3)c(C)nc2c1 | 0.24µg/mL*

(listing goes on)
compound | Mtb H37Rv
COc1ccc(CNC(=O)CCc2ccc(S(=O)(=O)NC3CCCCC3)cc2)cc1 | i
Cc1nc(Nc2nc3c(c(=O)[nH]2)CCC3)nc2ccccc12 | i
Cc1cc(OCC(=O)c2ccc(F)cc2)cc2oc(=O)c3ccccc3c12 | i
O=S(=O)(NCc1ccncc1)c1ccc(Br)s1 | i
Cc1ccc(C(C)C)c(OCCCN(C)Cc2ccccc2)c1 | 1%
CCC(C)NC(=O)Nc1cccc(Cl)c1C (stereo not drawn) | i
COC(=O)c1ccccc1NC(=O)CN(c1ccc(F)cc1)S(=O)(=O)c1ccc(OC)c(OC)c1 | 4%
Cc1ccc(-c2ccc(S(=O)(=O)N3CC(C)OC(C)C3)cc2)cc1 (stereo not drawn) | i
O=c1c2ccc([N+](=O)[O-])cc2ncn1Cc1ccccc1 | i
Cc1ccc(C)c(OCC(=O)Nc2nnc(C(C)C)s2)c1C | i
Cc1ccc(-c2nnc(N3CCN(C(=O)Cn4c(=O)n(C)c5ccccc54)CC3)c3ccccc23)cc1 | 13%
COc1cccc(NC(=O)CSc2nnc(-c3ccc(Cl)cc3)n2-c2ccc(C)c(C)c2)c1 | i
COc1ccc(NC(=O)CSc2nc3ccccc3c(=O)n2-c2ccc(C)cc2)cc1Cl | i
COc1cccc(OC)c1C(=O)OCc1ccccc1Cl | 2%
Cc1ccc(NC(=O)C2CCCN2C(=O)OC(C)(C)C)cc1C (stereo not drawn) | i
Cc1ccc(N(CC(=O)Nc2ccc(Br)cc2F)S(=O)(=O)c2ccc(C)cc2)cc1 | 16%
Cc1c(-c2ccccc2)cn2ccn3c(C)ccc3c12 | ?
O=C(Cc1n[nH]c(=O)[nH]c1=O)N/N=C/c1ccc(C(F)(F)F)cc1 | 5%
Cc1ccccc1NC(=S)Nc1ccc(Br)cc1 | i
Cc1c(NC(=O)C2CC(=O)N(c3ccccc3)C2)c(=O)n(C)n1-c1ccccc1 (stereo not drawn) | i
CC(Oc1cccc(NC(=O)c2ccccc2Cl)c1)C(=O)c1ccc(Cl)cc1 (stereo not drawn) | i
C=CCn1c(SCC(=O)O)nnc1-c1ccncc1 | i
COc1cccc(C(=O)N(Cc2cc3ccc(C)cc3[nH]c2=O)c2ccccc2OC)c1 | i
COc1ccccc1C(=O)Nc1ccc(S(=O)(=O)Nc2nc(C)cc(C)n2)cc1 | 12%
C=CCn1c(N)cc(=O)nc1SCC(=O)Nc1sc2c(c1C(=O)OCC)CCCC2 | i
Cc1ccc(S(=O)(=O)N(C)c2ccc(C(=O)NC3CC4CCC3C4)cc2)cc1 (stereo not drawn) | i
N#Cc1ccccc1NS(=O)(=O)c1ccc(Oc2ccccc2)cc1 | i
CC(=O)Nc1ccc(I)cc1C(=O)O | i
CCOCc1nnc(NC(=O)c2ccc(OC)c([N+](=O)[O-])c2)s1 | i
CC(C)NS(=O)(=O)c1ccc(NC(=S)NC(=O)c2ccc(-c3ccccc3)cc2)cc1 | i
CCOC(=O)C1=C(N)Oc2cc(C)oc(=O)c2C12C(=O)N1c3c(cccc32)C(C)=CC1(C)C (stereo not drawn) | i
COc1cccc(C(=O)Nc2nc3cc(Cl)c(C)cc3s2)c1 | 1%
Cc1cc(C)n(-c2nc3c(c(C(F)(F)F)n2)CC(C)CC3)n1 (stereo not drawn) | 49%

Molecules shown so far containing a cyano group, in the order listed:
compound | Mtb H37Rv
Cc1ccc(OCc2nc(C#N)c(N(C)C)o2)cc1 | i
COc1ccc(N(C(C)=O)c2nc(C)cc(C)c2C#N)c(OC)c1 | i
Cc1nc(Nc2nc3ccccc3s2)nc(-c2ccccc2)c1C#N | i
COc1cc2c(cc1OC)CN(C(=O)CSc1nc3c(cc1C#N)CCC3)CC2 | 1%
Cn1c(SCCC#N)nnc1-c1cccc(Cl)c1 | i
N#Cc1ccccc1NS(=O)(=O)c1ccc(Oc2ccccc2)cc1 | i
